# From PubChem
# Menin-MLL FL inh – qHTS Assay for Inhibitors Targeting the Menin-MLL Interaction in MLL Related Leukemias: Competition With Fluorescein Labeled MLL-derived Peptide; Fluorescence polarization, fluorescein-MLL peptide displacement from menin; FP activity change, % at 61.4 µM; 290,000 tested, under 10 active; AID 1766, 2009; inconclusive = falling polarisation curve, or a change in total fluorescence; inactive = total fluorescence flat and polarisation flat or rising; no compound was filed as active; the % refers to the polarisation; negative = inhibition;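 also: % of control where 0% means no effect; inhibitors lower the polarisation; unlabelled MLL peptide was the positive control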
# gsp ag – qHTS for Agonist of gsp, the Etiologic Mutation Responsible for Fibrous Dysplasia/McCune-Albright Syndrome: qHTS. 340,000 compounds, 0.13% hits. Potency, µM (highest dose often 76.9 µM), inactives show top-dose activation (cAMP increase), most hits filed as activators. gsp mutant cells, cAMP HTRF, 30 min; control for the full effect not named in the record; active = well fitted activation curve with a large enough effect; inconclusive = small, poorly fitted or top-dose-only effect, or another doubt; inactive = no such curve, though single readings can be large or run the other way; cell line not stated here;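 also: phosphodiesterase inhibitor Ro 20-1724 added with compounds to block cAMP breakdown; potency is read from the fitted curve at half-maximal effect; nearly all actives have a fitted effect of over 60% in size; about a fifth of the inactives were tested at one dose only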
#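 Cells stably selected in G418 were plated at 2000/well, grown 16-24 hr, then given compounds in DMSO with the PDE inhibitor […] (300 uM solution added) for 30 min at 37C; cAMP was read by HTRF.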
# TRPV1 potentiator – HTS Assay for Compounds that Act as Potentiators of the Vanilloid Receptor 1. potentiation, % at 8.33 µM. AID 540277, 2011. 320,000 compounds, 0.02% hits. Transient receptor potential cation channel subfamily V member 1 (Homo sapiens), Q8NER1. TRPV1-expressing cells, Fluo-8 calcium influx, capsaicin EC20 potentiation; host cell line not named in the record; control for the full effect not named in the record; active means potentiation above 80%; inconclusive means 30% to 80%; inactive means below 30%; also: 0% is about no effect
#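 TRPV1-expressing cells were cultured overnight at 35.5C and loaded with Fluo-8 calcium dye for 40 to 90 min at room temperature. After a 10 s baseline, compound was added and calcium influx was read kinetically for 3 min (ex 480/em 520 nm).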
# Sfp inh – qHTS Assay for Inhibitors of Bacillus subtilis Sfp phosphopantetheinyl transferase (PPTase) | 4'-phosphopantetheinyl transferase ffp (Bacillus subtilis), Q9F4F7 | Biochemical Sfp PPTase activity, qHTS | Potency, µM, for inactives: max response, negative = inhibition, usual class: inhibitors | 310,000 compounds, 3.5% hits | AID 1490, 2009; active = well fitted inhibition curve with a large enough effect; inconclusive = small, poorly fitted or top-dose-only effect, or another doubt; inactive = no such curve, though single readings can be large or run the other way;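 also: the enzyme is Sfp with the accession as filed and its product quenches rhodamine fluorescence; potency is read from the fitted curve at half-maximal effect; 0% = enzyme reaction without inhibitor and -100% = no enzyme wells; top concentration of the series not given in the record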
#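 Step 1, compound plus 15 nM Sfp-PPTase, 15 min, room temperature. Step 2, add rhodamine-CoA (5 uM) and BHQ-2-YbbR (12.5 uM). Step 3, read 525/598 nm fluorescence at 0 and 30 min.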
# ClpP mod – qHTS Assay for Activators of ClpP. purified B. subtilis ClpP, FRET peptide cleavage, 20 min. AID 651965, 2013. Potency, µM (highest dose often 57.5 µM), for inactives: at the top dose activity change, negative = active. 340,000 compounds, 1.9% hits; active = well fitted falling curve with a large enough effect; inconclusive = small, poorly fitted or top-dose-only effect; inactive = no such curve, though single readings can be large or run the other way; also: potency is read from the fitted curve at half-maximal effect; the source files actives as falling curves though it sought activators and does not explain the sign; nearly all actives have a fitted effect of over 65% in size; many hits overshoot -100%
# Target sequence (P80244 whole entry, looked up): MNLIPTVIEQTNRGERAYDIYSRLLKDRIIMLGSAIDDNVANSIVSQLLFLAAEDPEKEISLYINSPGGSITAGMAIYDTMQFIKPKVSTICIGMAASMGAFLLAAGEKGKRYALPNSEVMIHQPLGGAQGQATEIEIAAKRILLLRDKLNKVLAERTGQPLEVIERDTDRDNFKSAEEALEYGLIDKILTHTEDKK
#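 FRET quenching reversal measured ClpP activation: 10 microg/mL B. subtilis ClpP at pH 8 with the FRET-FV decapeptide, read at 430 nm after 320 nm excitation. The 20-min minus 0-min signal was scaled between DMSO/no-enzyme wells and ADEP (5.8 microM final).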
# TRPML1 inh – qHTS for Inhibitors of the Human Mucolipin Transient Receptor Potential 1 (TRPML1). Mucolipin-1 (Homo sapiens), Q9GZU1. TRPML1-inducible cells, Ca2+ dye fluorescence, FDSS; stronger effect = lower value; inhibition of EC80 agonist-evoked calcium signal. activity change, negative = inhibition, % (concentration not given with the values). 390,000 compounds, 0.02% hits; in the data active means activity change below about -50%; inconclusive means about -30% to -50%; inactive means above about -30%;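 also: stimulus is agonist 54-4 at its EC80 concentration; % is scaled to controls: 0 for no effect and ±100 for the full control effect; the text of the record puts the active cut at -80%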
# Target sequence (Q9GZU1 whole entry, looked up): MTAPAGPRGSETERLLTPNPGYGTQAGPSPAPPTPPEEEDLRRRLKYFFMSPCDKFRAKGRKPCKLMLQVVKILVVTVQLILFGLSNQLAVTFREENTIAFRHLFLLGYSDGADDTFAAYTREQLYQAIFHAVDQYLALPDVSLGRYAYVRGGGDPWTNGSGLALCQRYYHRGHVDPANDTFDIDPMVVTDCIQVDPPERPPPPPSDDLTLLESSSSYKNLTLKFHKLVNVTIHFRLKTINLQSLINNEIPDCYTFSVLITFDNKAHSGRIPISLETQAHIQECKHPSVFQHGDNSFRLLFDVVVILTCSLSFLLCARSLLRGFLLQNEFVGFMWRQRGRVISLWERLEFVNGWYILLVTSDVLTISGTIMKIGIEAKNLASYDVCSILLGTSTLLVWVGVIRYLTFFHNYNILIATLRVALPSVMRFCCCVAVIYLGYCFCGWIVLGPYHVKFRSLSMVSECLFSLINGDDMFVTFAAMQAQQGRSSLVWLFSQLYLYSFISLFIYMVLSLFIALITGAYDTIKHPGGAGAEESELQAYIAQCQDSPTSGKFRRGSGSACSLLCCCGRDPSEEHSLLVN
#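 Calcium fluorescence in TRPML1-DL cells induced overnight with Tet: a 110 s read after compound pin addition, then a 110 s antagonist read after challenge with 54-4 at 4 uM final (EC80).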
# gsp antagonist – qHTS for Antagonists of gsp, the Etiologic Mutation Responsible for Fibrous Dysplasia/McCune-Albright Syndrome: qHTS | gsp-mutant cells, cAMP HTRF, 30 min; control for the full effect not named in the record | Potency, µM (highest dose often 76.9 µM), for inactives: at the highest dose activity change, negative = inhibition, hits mostly inhibitors | 340,000 compounds, 0.4% hits | AID 624288, 2012; active = falling curve of any shape with a large fitted effect; inconclusive = falling curve, mostly with a smaller effect; inactive = flat or rising curve; cell line not stated here;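 also: intracellular cAMP measured with PDE inhibitor Ro 20-1724 present during compound exposure; potency is read from the fitted curve at half-maximal effect; % is scaled to controls: 0 for no effect and ±100 for the full control effect; nearly all actives have a fitted effect of over 65% in size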
#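 HTRF cAMP read-out (cAMP-d2 plus anti-cAMP antibody-K in lysis buffer, 30 min RT). Before lysis, cells are exposed to compounds with […] for 30 min at 37C in DPBS containing Ca/Mg, BSA and Tween 20.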
# Active calls of the source: *; ? = inconclusive; . = no result given; & = joins results of further samples; [ ] = another dose, or the depositor's remark. This is a random part of the collection; 4.9% or so of the library scored in one or more.
SMILES,Menin-MLL FL inh,gsp ag,TRPV1 potentiator,Sfp inh,ClpP mod,TRPML1 inh,gsp antagonist
COc1ccc2[nH]c3c(c2c1)CCN1C(=O)C(CC(=O)NCCc2ccccn2)C[C@H](C(=O)N(C(C)C)C(C)C)[C@@]31C (stereo partly drawn),.,.,.,.,-5.7%,-4,-4%
COc1cccc(N(C(=O)Cn2nnc(-c3ccc(C)o3)n2)C(C(=O)NC(C)(C)C)c2cccs2)c1 (stereo not drawn),0.1,?,-15,5%,1.4%,-17,9%
O=C1NC(=S)S/C1=C\c1cc(Cl)cc(Cl)c1O,.,?,.,.,-3.1%,0,-11%
N#CC1=C(N)NC(=S)C(C(N)=O)C1c1ccc(Cl)cc1Cl (stereo not drawn),4.9,-11%,4,8.9µM*,-0.3%,-4,3%
O=S(=O)(Cc1ccccc1)N1CCN(Cc2ccc(F)cc2Cl)CC1,.,-46%,-11,1%,0.3%,-1,6%
O=C(Cn1ccnc1[N+](=O)[O-])NCc1ccccc1,3.4,.,3,3%,-0.1%,-2,-4%
COc1ccc(Cl)cc1NC(=O)COC(=O)C1=NNC(=O)CC1,.,-6%,.,.,?,-2,1%
CCn1c(CNC(=O)c2ccco2)nnc1SCC(=O)c1ccc(F)cc1,1.9,17%,-3,17%,.,-4,-1%
O=C(Nc1ccccc1F)Oc1cccc(OC(=O)Nc2ccccc2F)c1,-11,?,-29,12%,0.8%,3,11%
O=c1c2ccccc2ncn1-c1ccc(Br)cc1[N+](=O)[O-],-0.2,-12%,3,3%,2.1%,16,-1%
CCCCN(C)CCNC(=O)C(NC(=O)C1CCC(C)CC1)C(C)C (stereo not drawn),-5.3,5%,-4,19%,.,6,11%
OCCNCC(O)Cn1c2ccccc2c2ccccc21 (stereo not drawn),-1.6,9%,-7,15%,-0.6%,-22,-30%
CCOC(=O)c1c(NC(=O)CSc2nnc3c(Cl)cc(Cl)cn23)sc2c1CCC2,8.2,5%[15.4 µM],1,?,0.2%,2,?
COc1ccc(NC(=O)C2CC(=O)N(c3cc(C)ccc3C)C2)cc1 (stereo not drawn),0.7,11%,9,-1%,-2.8%,18,-2%
S=C(Nc1ccc(Br)cc1)Nc1ccc2c(c1)OCCO2,2.8,4%,0,-3%,-1.1%,-1,3%

# Single records (already shown). Order of values: Menin-MLL FL inh, gsp ag, TRPV1 potentiator, Sfp inh, ClpP mod, TRPML1 inh, gsp antagonist
# O=S(=O)(Cc1ccccc1)N1CCN(Cc2ccc(F)cc2Cl)CC1 is entered as ., -46%, -11, 1%, 0.3%, -1, 6%
# O=C(Nc1ccccc1F)Oc1cccc(OC(=O)Nc2ccccc2F)c1 is entered as -11, ?, -29, 12%, 0.8%, 3, 11%

# (next part)
SMILES,Menin-MLL FL inh,gsp ag,TRPV1 potentiator,Sfp inh,ClpP mod,TRPML1 inh,gsp antagonist
CCOP(=O)(OCC)C(NC(=O)Nc1ccc(C)cc1)C(N)=O (stereo not drawn),-0.8,-4%[15.4 µM],?,1%,.,15,6%
CCC(C)N(C(=O)COc1ccc(Br)cc1C=O)C1CCS(=O)(=O)C1 (stereo not drawn),.,-4%,7,.,-6.9%,7,6%
Cc1nc2cc(C(F)(F)F)ccc2n1C,2.9,1%[15.4 µM],-20,17%,.,1,6%
Cc1c(Cl)cccc1S(=O)(=O)Nc1ccnn1C,2.9,10%[15.4 µM],16,14%,.,-4,-7%
CCN(CC(=O)Nc1c(F)cccc1F)C(=O)c1cc([N+](=O)[O-])ccc1N1CCOCC1,.,-24%,9,.,-0.5%,2,10%
Cn1c(-c2ccccc2)cnc1SCc1nc2ccccc2c(=O)[nH]1,2.7,2%,-20,-9%,-4.1%,2,-20%
O=c1c2nccnc2[nH]c(=S)n1Cc1ccccc1Cl,-1.3,13%,-10,4%,5.7%,46,-19%
O=C(CCNC(=O)OCC1c2ccccc2-c2ccccc21)NOCc1ccccc1,.,.,.,.,-2.6%,49,11%
Cc1ccc2nc(-c3ccccc3)cc(C(=O)N3CCN(c4ccccc4O)CC3)c2c1,.,-7%,-4,.,-3.4%,4,-25%
O=C(CS(=O)c1ccc(C(F)(F)F)cc1[N+](=O)[O-])Oc1ccc(Cl)cc1 (stereo not drawn),-1.1,?,-7,-3%,-2.0%,10,16%
Cc1ccc(CN2C(=O)c3ccccc3NC2c2ccccn2)cc1 (stereo not drawn),2.4,-6%[15.4 µM],8,11%,.,3,.
COc1cc(/C=C/C(=O)O)ccc1OCc1ccccc1C#N,-4.5,-3%[15.4 µM],5,-18%,-29%,6,1%
C/C=C/c1ccc(OCC(=O)N(CCOC)c2c(N)n(CCCC)c(=O)[nH]c2=O)c(OC)c1,.,-13%,23,.,0.3%,3,6%
CCNC(=O)/C(C#N)=C/c1c(N2CCN(c3ccccc3)CC2)nc2c(C)cccn2c1=O,5.2,9%[15.4 µM],-19,16%,0.8%,-16,-23%
Cc1cccc(NC(=O)c2ccc3c(c2)CCN3S(C)(=O)=O)c1,0.5,-11%[15.4 µM],-9,-2%,-8.5%,39,-1%
c1ccc(CNCc2ccco2)cc1,-0.1,7%,-16,8%,-3.9%,-1,10%
COC(=O)c1ccc(Nc2c([N+](=O)[O-])ccc3nonc23)cc1,?,-2%[15.4 µM],-16,2%,0.8%,28,-6%
CN(C)C(=O)C1C2NC(=S)N(c3cccc(Cl)c3)C1(C)Oc1ccc(Cl)cc12 (stereo not drawn),-0.8,?,-8,6%,.,14,0%
CS(=O)(=O)N(CC(=O)NCc1ccccc1)C1CCCCC1,2.2,-35%[inhibitor],-20,39%[activator],-0.1%,47,12%
Cc1nc(NC(=O)c2ccccc2)sc1-c1cc(C(=O)N2CCOCC2)nn1Cc1ccccc1,.,?,.,.,106%,14,.
O=C1CCC(=O)N1Cc1c(Cl)cccc1Cl,1.1,8%[15.4 µM],-5,31%[activator],.,-15,9%
COc1ccccc1CNC(=O)C1CCN(S(=O)(=O)c2cccc3cccnc23)CC1,-1.2,29%,.,20%,-3.4%,17,-5%
O=C(/C=C\c1ccccc1)Oc1cccc2cccnc12,?,-11%,0,?,-4.2%,76,-4%
O=C(Nc1ccccc1)C1=C(c2ccccc2)S(=O)(=O)CCS1(=O)=O,2.1,6%,3,13µM*,.,1,?
N#CCCN(Cc1ccccc1)C(=O)c1cccs1,-0.5,-6%[15.4 µM],.,5%,.,-13,6%
COc1ccc(NC(=O)COc2ccccc2C#N)c(S(=O)(=O)N2CCCCC2)c1,2.3,-1%,29,-9%,-2.1%,-12,-11%
CC(Cc1cccnc1)NC(=O)c1cc(COc2ccc(F)cc2F)on1 (stereo not drawn),.,-51%[inhibitor],8,11%,0.7%,-9,0%
Cc1ccnc(NS(=O)(=O)c2ccc(Oc3ccccc3)cc2)c1,1.7,-11%,-8,11%,28µM*,-21,-36%
COc1ccccc1CN1CC(C(=O)NCCc2ccc(Cl)cc2)CC1=O (stereo not drawn),.,25%,17,8%,0.3%,2,-10%
COc1cccc(OCc2cc(C(=O)N3CCN(C)C(c4ccccc4)C3)no2)c1 (stereo not drawn),.,25%,-9,1%,-1.7%,-4,-5%
CCOC(=O)C1CCCN(C(=O)COc2ccc(S(=O)(=O)N(CC)c3ccccc3)cc2)C1 (stereo not drawn),0.5,4%[15.4 µM],-11,15%,-4.5%,6,3%
COc1ccc(C(=O)N2CCN(c3cnn(-c4ccccc4)c(=O)c3Cl)CC2)cc1,12,?,7,13%,.,-3,-24%
COc1ccc(OC)c(S(=O)(=O)N2CCC(NC(=O)c3ccccc3)CC2)c1,0.5,26%,3,14%,-1.1%,-16,-1%
COC(=O)C1=C[C@@H](C(=O)OC)C2C3=C(C(=O)C24CCCCC4)[C@H](C)n2c(=O)n(-c4ccccc4)c(=O)n2[C@@H]3C1 (stereo partly drawn),-6.6,.,.,18%,-1.1%,23&1,?
O=C(CC(=O)Nc1ccc(F)cc1F)Nc1ccc(F)cc1F,-3.0,-19%,?,6%,0.5%,-15,17%
CCc1nc2c(cnn2-c2ccc(F)cc2)c(=O)n1-c1ccc(N2CCC(C)CC2)cc1,1.2,-27%,1,-18%,-5.5%,-2,-2%
Cc1ccc(C)c(NC(=O)CN(C)C(=O)c2cccc(S(=O)(=O)N(C)C)c2)c1,?,-6%[15.4 µM],-4,6%,.,23,2%
Cc1ccc(SCC(=O)Nc2cc(S(=O)(=O)N3CCCCC3)ccc2C)cc1,.,-6%[15.4 µM],.,.,0.5%,20,-14%
O=C(O)/C=C/c1ccc(S(=O)(=O)N2CCN(CCN3C(=O)C4C5C=CC(C5)C4C3=O)CC2)cc1 (stereo not drawn),-7.2,-9%,-7,5%,-0.1%,?,0%
Cc1cccc(C)c1Nc1nnc(SCC(=O)Nc2sccc2C#N)s1,.,0%[15.4 µM],-12,-6%,.,14,0%
CC1CCCN(C(=S)SCC(=O)c2cc(Br)cc(Br)c2O)C1 (stereo not drawn),3.2,1%[15.4 µM],5,?,.,-9,-13%
Cc1nn(C)c2ncc(C(N)=O)c(Oc3cccnc3)c12,2.3,-5%[15.4 µM],-11,0%,.,-5,11%
CCCN(Cc1nnc(-c2cccs2)o1)C(=O)c1cc(S(=O)(=O)N2CCOCC2)ccc1C,.,?,0,.,-2.7%,-11,-9%
CN(Cc1cccs1)C(=O)c1cc(S(=O)(=O)N2CCOCC2)ccc1N1CCCC1,.,7%,14,.,-2.8%,3,-6%
COc1ccc(N2CCN(C(=O)C(=O)c3cn(CC(=O)N4CCCCCC4)c4ccccc34)CC2)cc1,.,14%[15.4 µM],-15,3%,-1.2%,21,-26%
